High-throughput results deposited in PubChem BioAssay by National Center for Advancing Translational Sciences (NCATS).
ClpP mod – qHTS Assay for Activators of ClpP; AID 651965, 2013; Potency, µM (titrated, usually from 57.5 µM), without a hit: at the top dose activity change, negative = active; hit rate 1.9% among 340,000; purified B. subtilis ClpP, FRET peptide cleavage, 20 min; active = well fitted falling curve with a large enough effect; inconclusive = small, poorly fitted or top-dose-only effect; inactive = no such curve, though single readings can be large or run the other way; also: potency is read from the fitted curve at half-maximal effect; the source files actives as falling curves though it sought activators and does not explain the sign; nearly all actives have a fitted effect of over 65% in size; many hits overshoot -100%
Target sequence (P80244 whole entry, looked up): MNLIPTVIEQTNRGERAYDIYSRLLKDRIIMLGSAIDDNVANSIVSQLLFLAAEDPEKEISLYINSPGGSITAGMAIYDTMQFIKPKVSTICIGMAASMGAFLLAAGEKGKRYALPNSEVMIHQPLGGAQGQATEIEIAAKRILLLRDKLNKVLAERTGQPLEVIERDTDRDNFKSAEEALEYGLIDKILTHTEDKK
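Buffer: 100 mM Tris/HCl pH8, 100 mM KCl, 0.05% low protease BSA, 2.5% glycerol, 0.01% Tween-20. ClpP 10 microg/mL final; 20 min RT; delta FRET normalized to ADEP and DMSO controls.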
PINK1 modulator – PINK1 expression modulation | PINK1 immunofluorescence, high-content cytometry, 24 h | Potency, µM (top dose mostly 76.6 µM), without a hit: top-dose activation (PINK1 increase), usual class: activators | hit rate 0.2% among 410,000; active = well fitted activation curve with a large enough effect; inconclusive = small, poorly fitted or top-dose-only effect; inactive = flat fitted curve, though single readings scatter; cell line not stated here;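 also: potency is read from the fitted curve at half-maximal effect; % of control where 0% means no effect; nearly all actives have a fitted effect of over 65% in size; a mitochondrial uncoupler was the plate control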
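PINK1 protein, normally rapidly degraded, was detected by immunofluorescence after 24 hour compound treatment of a stable cell line. Titration data (5 concentrations) came from laser-scanning cytometry, with CCCP-treated wells as controls.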
Menin MLL FP FL – menin-MLL binding inhibition, fluorescein peptide | Fluorescence polarization, fluorescein-MLL peptide displacement from menin | FP activity change, % at 61.4 µM | AID 1766 | 290,000 tested, under 10 active; inconclusive = falling polarisation curve, or a change in total fluorescence; inactive = total fluorescence flat and polarisation flat or rising; no compound was filed as active; the % refers to the polarisation; negative = inhibition;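 also: % of control where 0% means no effect; inhibitors lower the polarisation; unlabelled MLL peptide was the positive control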
TRPML1 blocker – human mucolipin-1 channel inhibition. TRPML1-inducible cells, Ca2+ dye fluorescence, FDSS; active compounds read low; inhibition of EC80 agonist-evoked calcium signal. activity change, negative = inhibition, % (concentration not given with the values). hit rate 0.02% among 390,000. AID 624415; in the data active means activity change below about -50%; inconclusive means about -30% to -50%; inactive means above about -30%;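 also: stimulus is agonist 54-4 at its EC80 concentration; % is scaled to controls: 0 for no effect and ±100 for the full control effect; the text of the record puts the active cut at -80%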
Target sequence (Q9GZU1 whole entry, looked up): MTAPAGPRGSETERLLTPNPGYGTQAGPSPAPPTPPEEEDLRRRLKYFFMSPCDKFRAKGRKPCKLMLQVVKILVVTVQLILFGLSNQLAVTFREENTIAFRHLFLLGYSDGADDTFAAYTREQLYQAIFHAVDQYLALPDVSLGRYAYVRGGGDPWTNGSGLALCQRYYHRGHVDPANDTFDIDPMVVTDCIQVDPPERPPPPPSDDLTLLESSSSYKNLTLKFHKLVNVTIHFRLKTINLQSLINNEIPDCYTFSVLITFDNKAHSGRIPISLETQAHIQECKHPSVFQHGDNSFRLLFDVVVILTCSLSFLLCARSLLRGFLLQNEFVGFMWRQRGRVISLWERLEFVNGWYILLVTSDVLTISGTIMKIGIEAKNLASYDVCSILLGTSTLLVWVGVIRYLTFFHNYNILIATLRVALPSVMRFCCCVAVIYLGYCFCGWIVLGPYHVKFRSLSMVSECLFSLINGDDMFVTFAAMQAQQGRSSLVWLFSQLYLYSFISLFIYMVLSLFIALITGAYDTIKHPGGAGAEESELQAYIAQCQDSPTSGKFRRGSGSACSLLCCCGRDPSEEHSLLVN
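TRPML1-DL cells, Tet-induced overnight (~16 h, 37 °C) at 1,500 cells/well, were loaded with Ca8 no-wash dye plus quencher for 45-90 min at room temperature. Compounds were pinned during FDSS kinetic reading; agonist 54-4 at EC80 (4 uM final) then added.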
TRPML1 agonist – activates the human TRPML1 channel; Q9GZU1; TRPML1-expressing cells, Ca2+ dye fluorescence, FDSS; host cell line not named in the record; reference of the full effect not given here; activation, % (concentration not given with the values); hit rate 0.12% among 410,000; AID 624414; in the data active = activation above about 50%; inconclusive = about 30% to 50%; inactive = below about 30%; also: 0% is about no effect; the text of the record puts the active cut at 80%
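Calcium fluorescence on an FDSS kinetic reader gave the read-out. Tet-induced TRPML1-DL cells were plated overnight, dye-loaded (Ca8 with quencher, 45-90 min, room temperature, dark), then read 110 s after compound addition, and again 110 s after 4uM final 54-4 (EC80).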
Sfp inh – blocks B. subtilis Sfp PPTase activity; Q9F4F7; Biochemical Sfp PPTase activity, qHTS; Potency, µM, for inactives: max response, negative = inhibition, usual class: inhibitors; hit rate 3.5% among 310,000; active = well fitted inhibition curve with a large enough effect; inconclusive = small, poorly fitted or top-dose-only effect, or another doubt; inactive = no such curve, though single readings can be large or run the other way;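 also: the enzyme is Sfp with the accession as filed and its product quenches rhodamine fluorescence; potency is read from the fitted curve at half-maximal effect; 0% = enzyme reaction without inhibitor and -100% = no enzyme wells; top concentration of the series not given in the record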
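Fluorescence-quenching assay: 15 nM Sfp-PPTase preincubated 15 min at room temperature with compound, then 5 uM rhodamine-CoA and 12.5 uM BHQ-2-labelled YbbR peptide added. Fluorescence (ex 525/em 598 nm) read at start and after 30 min; difference gives rate.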
TRPV1 potentiator – enhances activation of the human vanilloid receptor TRPV1. Q8NER1. TRPV1-expressing cells, Fluo-8 calcium influx, capsaicin EC20 potentiation; host cell line not named in the record; control for the full effect not named in the record. potentiation, % at 8.33 µM. hit rate 0.02% among 320,000. AID 540277; active means potentiation above 80%; inconclusive means 30% to 80%; inactive means below 30%; also: 0% is about no effect
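TRPV1-expressing cells were cultured overnight at 35.5C and loaded with Fluo-8 calcium dye for 40 to 90 min at room temperature. After a 10 s baseline, compound was added and calcium influx was read kinetically for 3 min (ex 480/em 520 nm).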
The depositor's hits bear a star; ? = inconclusive; · = no result given; & = joins results of further samples.

SMILES	ClpP mod	PINK1 modulator	Menin MLL FP FL	TRPML1 blocker	TRPML1 agonist	Sfp inh	TRPV1 potentiator
O=C(CSc1nc2[nH]ncc2c(=O)n1-c1ccccc1Br)NCc1ccccc1Cl	-0.8%	0.1%	-0.4	24.3	0.5	1.8%	-2.4
O=C(O)CC(NC(=O)C(c1ccccc1)c1ccccc1)c1cccc([N+](=O)[O-])c1 (stereo not drawn)	-1.0%	-0.1%	5.6	·	·	25.7%	5.2
CC(=O)N1CCC[C@@]2(CCN(Cc3ccccc3)C2)C1	·	0.5%	-0.5	·	·	23.5%	·
CC(C)(CO)CNC(=O)c1ccc(OC2CCN(C(=O)C3CC3)CC2)cc1	·	2.0%	3.7	2.1	-0.2	4.6%	9.3
Cc1csc2c(N3CCN(C(=O)NC(C)(C)C)CC3)ncnc12	·	-1.9%	0.5	3.7	1.1	14.6%	19.5
Cc1ccc(-n2ncc3c(=O)[nH]c(SCC(=O)N4CCC(C)CC4)nc32)cc1C	-9.4%	0.8%	1.6	-8.4	-0.1	-3.0%	11.1
C/C(=N\OC(=O)c1ccccc1F)c1nccs1	-0.7%	1.3%	0.3	9.3	-0.4	15.4%	20.8
COc1ccc(NC(=O)Cn2cc(C(=O)c3ccco3)c3ccccc32)cc1	21.9%	0.0%	2.6	-9.6	1.0	?	12.8
CC[C@]12c3[nH]c4ccc(Cl)cc4c3CCN1C(=O)[C@@H](CC(=O)NCc1ccc(OC)c(OC)c1)C[C@@H]2C(=O)N1CCN(C(=O)C2CC2)CC1	-1.5%	3.9%	·	10.4	-0.5	·	·
Cc1ccccc1OCC(=O)OCC(=O)NC1CCCC1	0.5%	0.9%	·	0.4	-0.4	·	·
OCc1nc2ccccc2n1/N=C/c1cccs1	·	24.6%	-1.2	3.4	1.0	15.2%	2.2
COc1ccc(NC(=O)C(NC(=O)OC(C)(C)C)C(C)OCc2ccccc2)cc1 (stereo not drawn)	1.6%	?	6.1	10.2	-0.8	2.3%	14.4
CSCCC(NC(=O)/C(=C\c1ccco1)NC(=O)c1ccco1)C(=O)O (stereo not drawn)	0.2%	-0.6%	1.7	-11.0	-0.2	-21.0%	-9.3
COc1ccccc1CNC(=O)COC(=O)C12CC3CC(CC(O)(C3)C1)C2	0.1%	2.6%	·	25.7	0.1	·	-9.6
COc1cccc(/C=C2\CC(C)Cc3c2nc2ccccc2c3C(=O)O)c1OC (stereo not drawn)	·	0.5%	-2.2	-12.5	0.6	31.6µM*	15.6
COc1ccccc1C(=O)Nc1cc(C)c(OCC(=O)N2CCOCC2)c(C)c1	-10.3%	3.5%	·	-19.0	0.1	21.8%	5.3
O=C(c1cc2c(s1)-c1ccccc1OC2)N1CCN(c2ccccc2)CC1	-28.8%&-24.8%	3.2%&2.9%	0.4	22.1&-2.6	1.4&-0.3	-6.7%	1.9
O=C(O)C1C2CCC(C2)C1C(=O)NCCC1=CCCCC1 (stereo not drawn)	-1.0%	3.7%	-0.1	-1.6	-0.2	7.2%	4.4
CCCOc1ccc(CCC(=O)N/N=C/c2ccc([N+](=O)[O-])o2)cc1	3.2%	?	-1.6	13.3	3.3	15.6%	-2.4
CC(=O)c1cc(C)c(OCc2cn(CC(=O)c3ccc(O)cc3)nn2)c(C)c1	-0.1%	0.3%	·	49.8	-0.2	·	·
Cc1nnc(NC(=O)c2cccc(S(=O)(=O)N(C)c3cccc(Cl)c3)c2)s1	0.1%	1.2%	·	-5.7	3.1	·	5.3
CCOc1nc(C)cc(COC)c1C(N)=O	·	1.7%	-0.5	39.3	-0.1	1.2%	-1.3
CCOc1ccc(N(CC(=O)N2CCOCC2)S(=O)(=O)c2ccc(Cl)cc2)cc1	·	0.7%	-1.9	-3.7	-0.4	-2.4%	-4.1
COc1ccc(NC(=O)C2C3C=CC(C3)C2C(=O)NCc2ccccn2)c(OC)c1 (stereo not drawn)	-0.5%	-1.7%	1.4	8.3	2.7	17.4%	1.2
COc1ccc(Cn2nc(C(=O)O)c3ccccc3c2=O)cc1F	·	3.4%	·	33.2	3.5	6.5%	14.4

2 records picked at random from those above, as already listed:
SMILES	ClpP mod	PINK1 modulator	Menin MLL FP FL	TRPML1 blocker	TRPML1 agonist	Sfp inh	TRPV1 potentiator
CC[C@]12c3[nH]c4ccc(Cl)cc4c3CCN1C(=O)[C@@H](CC(=O)NCc1ccc(OC)c(OC)c1)C[C@@H]2C(=O)N1CCN(C(=O)C2CC2)CC1	-1.5%	3.9%	·	10.4	-0.5	·	·
COc1ccc(NC(=O)C(NC(=O)OC(C)(C)C)C(C)OCc2ccccc2)cc1 (stereo not drawn)	1.6%	?	6.1	10.2	-0.8	2.3%	14.4

Following part:
SMILES	ClpP mod	PINK1 modulator	Menin MLL FP FL	TRPML1 blocker	TRPML1 agonist	Sfp inh	TRPV1 potentiator
Cc1ccc(OCC(=O)Nc2cccc(C(=O)OCc3cc(=O)n4cc(C)sc4n3)c2)cc1	-14.5%	-0.6%	·	-8.0	2.9	·	·
O=C(CN1C(=O)NC(c2ccccc2)(c2ccccc2)C1=O)Nc1ccc2[nH]c(=O)[nH]c2c1	·	3.8%	6.5	-13.6	0.7	4.8%	-1.4
CCCNC(=O)C1(C)CCCN(C(=O)c2c(C)noc2C)C1 (stereo not drawn)	-0.8%	-0.5%	·	·	-0.5	·	·
CC(=O)N(C)c1ccc(N=Cc2c(O)ccc3ccccc23)cc1	·	0.5%	0.0	4.9	-0.5	0.7%	-18.0

16 entries from above, with values under each structure.
Value order – ClpP mod	PINK1 modulator	Menin MLL FP FL	TRPML1 blocker	TRPML1 agonist	Sfp inh	TRPV1 potentiator
OCc1nc2ccccc2n1/N=C/c1cccs1
→ ·	24.6%	-1.2	3.4	1.0	15.2%	2.2
COc1ccc(NC(=O)C(NC(=O)OC(C)(C)C)C(C)OCc2ccccc2)cc1 (stereo not drawn)
→ 1.6%	?	6.1	10.2	-0.8	2.3%	14.4
CSCCC(NC(=O)/C(=C\c1ccco1)NC(=O)c1ccco1)C(=O)O (stereo not drawn)
→ 0.2%	-0.6%	1.7	-11.0	-0.2	-21.0%	-9.3
COc1ccccc1CNC(=O)COC(=O)C12CC3CC(CC(O)(C3)C1)C2
→ 0.1%	2.6%	·	25.7	0.1	·	-9.6
COc1cccc(/C=C2\CC(C)Cc3c2nc2ccccc2c3C(=O)O)c1OC (stereo not drawn)
→ ·	0.5%	-2.2	-12.5	0.6	31.6µM*	15.6
COc1ccccc1C(=O)Nc1cc(C)c(OCC(=O)N2CCOCC2)c(C)c1
→ -10.3%	3.5%	·	-19.0	0.1	21.8%	5.3
O=C(c1cc2c(s1)-c1ccccc1OC2)N1CCN(c2ccccc2)CC1
→ -28.8%&-24.8%	3.2%&2.9%	0.4	22.1&-2.6	1.4&-0.3	-6.7%	1.9
O=C(O)C1C2CCC(C2)C1C(=O)NCCC1=CCCCC1 (stereo not drawn)
→ -1.0%	3.7%	-0.1	-1.6	-0.2	7.2%	4.4
CCCOc1ccc(CCC(=O)N/N=C/c2ccc([N+](=O)[O-])o2)cc1
→ 3.2%	?	-1.6	13.3	3.3	15.6%	-2.4
CC(=O)c1cc(C)c(OCc2cn(CC(=O)c3ccc(O)cc3)nn2)c(C)c1
→ -0.1%	0.3%	·	49.8	-0.2	·	·
Cc1nnc(NC(=O)c2cccc(S(=O)(=O)N(C)c3cccc(Cl)c3)c2)s1
→ 0.1%	1.2%	·	-5.7	3.1	·	5.3
CCOc1nc(C)cc(COC)c1C(N)=O
→ ·	1.7%	-0.5	39.3	-0.1	1.2%	-1.3
CCOc1ccc(N(CC(=O)N2CCOCC2)S(=O)(=O)c2ccc(Cl)cc2)cc1
→ ·	0.7%	-1.9	-3.7	-0.4	-2.4%	-4.1
COc1ccc(NC(=O)C2C3C=CC(C3)C2C(=O)NCc2ccccn2)c(OC)c1 (stereo not drawn)
→ -0.5%	-1.7%	1.4	8.3	2.7	17.4%	1.2
COc1ccc(Cn2nc(C(=O)O)c3ccccc3c2=O)cc1F
→ ·	3.4%	·	33.2	3.5	6.5%	14.4
Cc1ccc(OCC(=O)Nc2cccc(C(=O)OCc3cc(=O)n4cc(C)sc4n3)c2)cc1
→ -14.5%	-0.6%	·	-8.0	2.9	·	·
